RE007 growth inh – less growth of the S. pombe RE007 Vpr strain; S. pombe RE007 Vpr strain, BacTiter-Glo ATP luminescence, 24 h; control for the full effect not named in the record; Potency, µM (top dose mostly 92.2 µM), for the others: top-dose activity change, negative = less growth; actives 0.21% (n = 360,000); active = well fitted falling curve with a large enough effect; inconclusive = small, poorly fitted or top-dose-only effect; inactive = no such curve, though single readings can be large or run the other way;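 further: on the % scale 0 is the no-effect control and ±100 the full control effect; nearly all actives have a fitted effect of over 50% in size; the assay follows cell death caused by Vpr and the record does not say whether a fall means rescue or toxicity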
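Fission yeast strain RE007, carrying one chromosomally integrated HIV-1 vpr copy, was seeded at OD 0.01 in PMG+AL medium with 23 nL pinned compound. After 24 h at 30 °C and 99% humidity, viability was read by BacTiter-Glo luminescence.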
Cruzain inh Det – cruzain (T. cruzi) inhibition with detergent; actives 0.43% (n = 200,000); purified cruzain, Z-FR-AMC fluorescence, 0.01% Triton; Potency, µM, inactives show max response, negative = inhibition, actives largely listed as inhibitors; active means well fitted curve in the direction sought with a large enough effect; inconclusive means small, poorly fitted or top-dose-only effect, or another doubt; inactive means no such curve, though single readings can be large; an effect the other way counts as inactive or inconclusive;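 further: plate controls were neutral wells for no effect and buffer without enzyme for full effect; nearly all actives have a fitted effect of over 40% in size; top concentration of the series not given in the record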
Target sequence (P25779 123-467 limits assumed): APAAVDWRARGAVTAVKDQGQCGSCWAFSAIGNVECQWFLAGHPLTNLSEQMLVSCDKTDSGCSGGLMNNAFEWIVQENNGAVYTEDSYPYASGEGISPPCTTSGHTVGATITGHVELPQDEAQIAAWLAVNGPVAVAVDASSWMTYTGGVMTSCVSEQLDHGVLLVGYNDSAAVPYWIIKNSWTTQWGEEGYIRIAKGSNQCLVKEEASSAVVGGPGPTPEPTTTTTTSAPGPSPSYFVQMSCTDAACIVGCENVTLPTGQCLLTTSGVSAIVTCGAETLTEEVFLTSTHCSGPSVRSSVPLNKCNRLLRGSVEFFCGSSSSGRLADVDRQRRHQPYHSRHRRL
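Sodium acetate buffer (100 mM, pH 5.5) containing 5 mM DTT and 0.01% Triton X-100 hosted 1.5 nM cruzain and test compound for 15 min at room temperature. Cleavage of 2 uM Z-FR-AMC was then tracked by fluorescence.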
SARS PLP yeast – blocks SARS-CoV papain-like protease in a yeast assay. AID 485353. Potency, µM (top dose mostly 32.9 µM), inactives show at the highest dose activity, positive = growth rescue. S. cerevisiae expressing SARS-CoV PLpro, growth rescue; control for the full effect not named in the record. actives 0.19% (n = 330,000); further: 0% is about no effect; nearly all actives have a fitted effect of over 55% in size; growth read by luminescence after 48 h
Lassa entry inh – blocks Lassa virus binding to or entry into cells; Lassa virus pseudotype entry inhibition, cell reporter; control for the full effect not named in the record; Potency, µM (series often up to 37.9 µM), for the others: at the highest dose activity change, negative = inhibition, actives largely listed as inhibitors; actives 1.2% (n = 300,000); AID 540256; active means well fitted inhibition curve with a large enough effect; inconclusive means small, poorly fitted or top-dose-only effect, or effect the other way; inactive means flat fitted curve, though single readings scatter; tested in HEK293 cells; further: on the % scale 0 is the no-effect control and ±100 the full control effect; nearly all actives have a fitted effect of over 50% in size; luciferase read-out
StopGo reporter – lowers the luciferase signal of an FMDV 2A StopGo reporter; human cells with a luciferase reporter of 2A StopGo recoding; control for the full effect not named in the record; Potency, µM (highest dose often 57.9 µM), inactives show at the highest dose signal change, negative = less light; actives 1.2% (n = 410,000); active = well fitted falling curve with a large enough effect; inconclusive = small, poorly fitted or top-dose-only effect; inactive = no such curve, though single readings can be large or run the other way; tested in HEK293T cells; further: on the % scale 0 is the no-effect control and ±100 the full control effect; nearly all actives have a fitted effect of over 45% in size; luciferase light after 4 h
Marburg entry inh – blocks Marburg virus binding to or entry into cells; Potency, µM (titrated, usually from 37.8 µM), without a hit: top-dose activity change, negative = inhibition, usual class: inhibitors; Marburg virus pseudotyped entry inhibition, cell reporter; control for the full effect not named in the record; about a third of the inactives were read at about 46 µM; AID 540276; actives 1.8% (n = 300,000); active = well fitted inhibition curve with a large enough effect; inconclusive = small, poorly fitted or top-dose-only effect, or effect the other way; inactive = flat fitted curve, though single readings scatter; tested in HEK293 cells; about a fifth of its hits are not listed in these tables; further: on the % scale 0 is the no-effect control and ±100 the full control effect; luciferase read-out
Cruzain noTriton – blocks cruzain activity in detergent-free assay. P25779. purified cruzain, Z-FR-AMC fluorescence, no detergent. Potency, µM, for the others: max response, negative = inhibition, usual class: inhibitors. actives 2.3% (n = 200,000). AID 1476; active means well fitted curve in the direction sought with a large enough effect; inconclusive means small, poorly fitted or top-dose-only effect, or another doubt; inactive means no such curve, though single readings can be large; an effect the other way counts as inactive or inconclusive;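 further: plate controls were enzyme without inhibitor for no effect and buffer without enzyme for full effect; nearly all actives have a fitted effect of over 40% in size; top concentration of the series not given in the record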
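Detergent-free condition (0.00005% Triton X-100) in acetate buffer pH 5.5 with DTT. 1.5 nM enzyme and compound were pre-mixed 15 min, then 2 uM Z-FR-AMC substrate added; reaction progress from fluorescence change between first and third reads (60 s).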
NS1 inh – blocks influenza NS1 protein function. S. cerevisiae slowed by influenza A NS1, growth recovery by OD600. Potency, µM (titrated, usually from 46.1 µM), for the others: at the top dose activity, positive = more growth. actives 0.4% (n = 270,000); further: actives are rising curves; nearly all actives have a fitted effect of over 50% in size
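In this qHTS, NS1 from influenza A is expressed in budding yeast, where it slows growth. Cells are switched from glucose to 2% galactose medium (pH 6.0, -URA), treated with compound, and growth recovery is read at OD600.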
* hit, by the source's call; ? = inconclusive; nt = not tested or not shown; & = joins results of further samples; [ ] = remark or other dose. Unless noted, the call rests on the fitted dose curve; in most records, active means well fitted rising curve with a large enough effect; inconclusive means small, poorly fitted or top-dose-only effect; inactive means no such curve, though single readings can be large or run the other way. Potency means the concentration at half of the fitted maximal effect. Not a hit list; any-hit rate near 4.7%.

Every second line gives: StopGo reporter | Cruzain inh Det | Marburg entry inh | RE007 growth inh | NS1 inh | SARS PLP yeast | Cruzain noTriton | Lassa entry inh
- CCOc1cccc(CN2CCC(n3nccc3NC(=O)C3CCCC3)CC2)c1
 : -11% | nt | ? | -4% | 1% | 2% | nt | -4%
- C=CCN(CC=C)S(=O)(=O)c1ccc(NC(=S)NC(=O)/C=C/c2cccc3ccccc23)cc1
 : -4% | 3.1% | -21% | -4% | 0% | -3% | 4µM* | 0%
- C=CCc1ccc(OCCOCCNCCCC)c(OC)c1
 : 0% | 9.8% | -18% | -4% | -4% | 23% | -4% | -9%
- CCOC(=O)c1c(C)oc2ccc(N(C(C)=O)S(=O)(=O)c3c(C)cc(C)cc3C)cc12
 : 3% | -3.0% | -8%[46.1 µM] | nt | nt | nt | -6% | 13%[46.1 µM]
- Cc1ccc(Cn2c(CNS(=O)(=O)c3ccc(F)c(Cl)c3)nc3cccnc32)cc1
 : 64%[activator] | -2.0% | nt | nt | nt | nt | -4% | 2%[46.1 µM]
- O=C(COC(=O)c1ccco1)c1ccc2ccccc2c1
 : 61%[activator] | -16% | -6%[46.1 µM] | ? | 2% | -14% | 5% | 11%
- O=C1c2oc3ccc(F)cc3c(=O)c2C(c2cccc(O)c2)N1CCCN1CCOCC1 (centres undefined)
 : 1% | 3.7% | ? | 5% | -5% | 3% | 15% | 4%
- COc1cc2oc(=O)cc(-c3cccc(-c4ccc(C(F)(F)F)cc4)c3)c2c(OC)c1OC
 : -27% | 0.3% | nt | 2%[18.4 µM] | nt | 17% | -24% | nt
- O=C(CCNS(=O)(=O)c1ccc(Cl)cc1)N1CCCC1
 : -6% | nt | 25%[46.1 µM] | 5% | 8% | 1% | nt | ?
- CCOC(=O)c1c(-c2cccc([N+](=O)[O-])c2)cn2ccccc12
 : -22% | nt | ? | -2% | nt | -3% | nt | -5%[46.1 µM]
- CC1CCN(Cc2csc(N)n2)CC1
 : 0% | 0.2% | ? | -2% | 5% | 6% | -3% | 4%
- COc1cccc(N2CCN(S(=O)(=O)c3ccc4c(c3)NC(=O)C(C)C(=O)N4)CC2)c1 (centres undefined)
 : ? | nt | nt | 14% | 30% | 16% | nt | nt
- O=C(NCc1ccccc1)c1ccc(NC(=O)c2ccccc2F)cc1
 : -6% | nt | ? | -3% | 0% | -4% | nt | 0%
- COC(=O)c1[nH]c2c(c1C)C(=O)CCC2
 : nt | -0.7% | 2% | -5% | -14% | -18% | -11% | 3%
- Cc1ccc(CN2CCN(Cc3cnn(-c4ccc(F)cc4)c3)CC2CCO)o1 (centres undefined)
 : -24% | nt | ? | -8% | 3% | 0% | nt | 17%
- C=Cc1ccc(CN2C(=O)N(c3ccc(C)c(C)c3)S(=O)(=O)c3ccccc32)cc1
 : -7% | 0.3% | nt | nt | nt | nt | ? | -10%[46.1 µM]
- COC(=O)c1ccccc1S(=O)(=O)N1CCC(NC(=O)c2ccccc2)CC1
 : 0% | nt | nt | 19% | 9% | 0% | nt | nt
- COc1cccc(C(=O)Nc2ccc3nc(N4CCN(c5ncccn5)CC4)cc(C)c3c2)c1OC
 : nt | -20% | nt | nt | -23% | -15% | 6% | nt
- CCCCNC(=O)COC(=O)c1c2c(nc3ccccc13)CCC2
 : -29% | nt | -14%[46.1 µM] | 2% | 25% | -1% | nt | 6%
- COc1cc(-c2cc(C(=O)Nc3ccc(S(=O)(=O)Nc4ncccn4)cc3)c3ccccc3n2)cc(OC)c1OC
 : -27% | nt | nt | 5% | 27% | 0% | nt | nt
- CC(CCc1ccccc1)NC(=O)C1CCN(S(=O)(=O)c2cnc[nH]2)CC1 (centres undefined)
 : 12% | 6.4% | 29%[46.1 µM] | 0% | -8% | -2% | 0% | 3%
- O=[N+]([O-])c1ccc(S(=O)(=O)c2cccc(C(F)(F)F)c2)nc1
 : 18µM* | nt | 11µM* | 40µM* | nt | nt | nt | ?
- CC(O)CNc1nc2sc3c(c2c(=O)n1CCc1ccccc1)CCCCC3 (centres undefined)
 : 13% | -11% | ? | 9% | 12% | -75% | 17% | 26µM*
- O=C(c1ccc([N+](=O)[O-])cc1)n1nc(-c2ccccc2)nc1NCc1ccccc1
 : 7% | -3.1% | ? | -4% | -4% | 4% | ? | 10%
- O=C1C(Nc2ccccc2)=CC(c2ccc(O)cc2)N1c1ccccc1 (centres undefined)
 : -14% | nt | nt | -3% | 6% | 2% | nt | nt
- COC(=O)Cc1csc(N)n1
 : -17%&11% | 0.6%&8.1% | 7%[46.1 µM] | 111%&10% | -2%&-3% | 2%&1% | -1%&-4% | 3%&9%
- COc1ccccc1N=Cc1nc(-c2ccccc2)oc1OC(C)=O
 : -30% | 25µM* | -12% | 15% | -17% | -53% | 20µM* | -5%
- CC1=C(C(=O)Nc2cccnc2)C(c2cccnc2)n2nc(-c3cccs3)nc2N1 (centres undefined)
 : -4% | -1.3% | -10% | 3% | -3% | 1% | -4% | 4%
- O=C(Nc1ccccc1)C(=O)Nc1ccc2c(c1)N(C(=O)C1CC1)CCC2
 : ? | nt | ? | -19% | nt | -2% | nt | ?
- Cc1ccc(C(=O)O)cc1NC(=S)NC(=O)c1ccc([N+](=O)[O-])cc1Cl
 : -6% | -5.0% | ? | 12% | 9% | 8% | 3% | -1%

Profiles, looked up by structure. Order of values: StopGo reporter | Cruzain inh Det | Marburg entry inh | RE007 growth inh | NS1 inh | SARS PLP yeast | Cruzain noTriton | Lassa entry inh
`C=CCN(CC=C)S(=O)(=O)c1ccc(NC(=S)NC(=O)/C=C/c2cccc3ccccc23)cc1` is listed as -4% | 3.1% | -21% | -4% | 0% | -3% | 4µM* | 0%
`Cc1ccc(Cn2c(CNS(=O)(=O)c3ccc(F)c(Cl)c3)nc3cccnc32)cc1` is listed as 64%[activator] | -2.0% | nt | nt | nt | nt | -4% | 2%[46.1 µM]
`O=C1C(Nc2ccccc2)=CC(c2ccc(O)cc2)N1c1ccccc1` (centres undefined) is listed as -14% | nt | nt | -3% | 6% | 2% | nt | nt

New compounds follow:
Every second line gives: StopGo reporter | Cruzain inh Det | Marburg entry inh | RE007 growth inh | NS1 inh | SARS PLP yeast | Cruzain noTriton | Lassa entry inh
- CCCC(=O)Nc1ccc(C(=O)Nc2cc(C(F)(F)F)ccc2Cl)cc1
 : ? | -0.3% | -21% | 4% | -42% | -3% | -4% | -6%
- Cc1ccc(C2CC(c3ccccc3C)n3nc(N)nc3N2)cc1 (centres undefined)
 : -20% | -0.3% | nt | -1% | 3% | -14% | -19% | nt
- COc1ccc(S(=O)(=O)N2CCOCC2)cc1NC(=O)CN1CCCC1
 : -11% | nt | ? | 2% | nt | 0% | nt | 23%
- O=C(COC(=O)c1cccc(S(=O)(=O)N2CCN(c3ccccc3)CC2)c1)NCC1CCCO1 (centres undefined)
 : -24% | nt | 1%[46.1 µM] | -1% | -2% | 0% | nt | 13%
- COc1ccc(OCC(=O)Nc2ccccc2O)cc1
 : 33%[activator] | -1.9% | 13% | -29% | -66% | -18% | -8% | ?
- O=C(NCc1ccccc1)c1ccc(CS(=O)Cc2ccc(Cl)cc2)o1 (centres undefined)
 : -17% | nt | 19%[46.1 µM] | -2% | -14% | 2% | nt | ?
- COc1ccc2c(c1)c(=O)c(Br)c(C)n2Cc1ccccc1
 : 0% | -3.3% | ? | 5% | -17% | 2% | 4% | -28%
- O=S(=O)(c1ccccc1)c1cnn(-c2ccccc2)c1-c1ccc(Cl)cc1
 : ? | 2.9% | ? | -4% | 23% | -12% | -3% | 9%
- Oc1c(C(c2cccs2)N2CCN(c3ccccc3)CC2)sc2ncnn12 (centres undefined)
 : -23% | -5.4% | nt | -6% | 2% | -11% | 4% | nt
- Cc1c(S(=O)(=O)c2ccccn2)c(N)n(Cc2ccccc2Cl)c1C
 : -8% | nt | ? | -26% | 0% | 0% | nt | -27%
- COc1ccccc1/C=C\C=N\n1c(C2CCCCC2)n[nH]c1=S
 : -6% | -5.5% | ? | -28%[3.69 µM] | 9% | 13% | 6.3µM* | ?
- CC(C)(C)c1ccc(OCCN2CCCC2)cc1
 : 4% | 0.4% | ? | 4% | -1% | ? | -5% | ?
- CN(C(=O)CSc1nc2[nH]ncc2c(=O)[nH]1)c1ccccc1
 : 1% | nt | 4% | -22% | nt | -1% | nt | 20%
- COc1cccc(C(=O)/C=C/Nc2ccc(S(=O)(=O)Nc3nc(C)cc(C)n3)cc2)c1
 : 57%[activator] | -6.9% | 25% | -13% | -12% | 14% | 32% | 3%
- CCOC(=O)C1CCN(S(=O)(=O)c2ccc3c(c2)N(C(C)=O)CC(C)S3)CC1 (centres undefined)
 : -28% | nt | 16%[46.1 µM] | 3% | -4% | 7% | nt | -26%[46.1 µM]
- CCOC(=O)c1c(C)nc2c(c1-c1ccc(OC)cc1)C(=O)CC(C)(C)C2
 : -21% | 1.6% | ? | -10% | -12% | -1% | 19% | -28%
- CSc1nc2nc3c(c(=O)n2[nH]1)CCC3
 : -3% | -0.5% | -7% | -1% | 9% | -4% | 3% | 10%
- Cc1ccc(Cl)c(OCC(=O)OC(C)C(=O)NC2CC2)c1 (centres undefined)
 : -18% | nt | -4% | -17% | nt | 3% | nt | -29%
- Nc1ncnc2c1ncn2[C@@H]1O[C@H](COP(=O)(O)OP(=O)(O)OP(=O)(O)OP(=O)(O)OC[C@@H]2O[C@H](n3cnc4c(N)ncnc43)[C@@H](O)[C@@H]2O)[C@H](O)[C@H]1O
 : nt | 2.1% | ? | nt | 1% | nt | 5% | nt
- O=C(CSc1nnc(SCc2ccccc2)s1)N/N=C/C=C\c1ccco1
 : 2% | -16% | nt | 3% | 30% | 16% | 7% | nt
- Cc1ccc(NC(=O)CN(C)C(=O)CSc2nnnn2C)cc1
 : -6% | nt | nt | -4% | 2% | 0% | nt | nt
- Cn1nccc1C(=O)Nc1ccc2c(c1)OCO2
 : 66%[activator] | nt | nt | -9% | 11% | -2% | nt | nt

High-throughput results as filed in PubChem BioAssay.
